Compound activity deposited in PubChem by PCMD.
RmlC RmlD mix: RmlC/RmlD inhibition, mixture screen | RmlC/RmlD coupled enzyme inhibition, 384-well mixture HTS | inhibition, % at 5.5 µM | 110,000 tested, 0.39% active | AID 1532; in the data active means inhibition above about 30%, passing the limit was not always enough; only retested compounds are shown here; further: strong numbers were not always called active
RmlC RmlD mix retest: also measured in RmlC RmlD mix; calls as there; inhibition, %; measured here: mean retest inhibition;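 single compounds in two wells; values far above 100% likely come from compound fluorescence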
* = called active by the depositor.

SMILES | RmlC RmlD mix | RmlC RmlD mix retest
CCC(C)n1ncn(-c2ccc(N3CCN(c4ccc(OCC5COC(Cn6cncn6)(c6ccc(Cl)cc6Cl)O5)cc4)CC3)cc2)c1=O (centres undefined) | 57 | -11

A portion of the library; count on the stated rates, not on these rows.
